CDC25B CDK2 inh – primary biochemical HTRF screen for blockers of M-phase inducer phosphatase 2 binding to CDK2/cyclin A. HTRF CDC25B-CDK2/CyclinA binding, anti-His/anti-Flag; stronger effect = higher value. z-score (test concentration not listed). 0.72% of 94,000 active;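 also: score is relative to mean and SD of negative controls; strong numbers were not always called active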
TAR Tat displ – TAR RNA-Tat peptide displacers, HIV-1, primary screen, biochemical, FRET, FAM/TAMRA-labeled Tat; 0.6% of 100,000 active; z-score (concentration not given with the values); AID 1259389, 2018; HIV-1 TAR RNA, Tat peptide displacement FRET; stronger effect = higher value;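 also: score is relative to mean and SD of negative controls; some compounds called inactive have numbers as strong as hits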
* = called active by the depositor; / = no result given.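 The calls were made as follows: active = z-score from 3 up in half or more of its runs; inactive = the rest.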

nr	smiles	TAR Tat displ	CDC25B CDK2 inh
1	Cc1ccc(C2Nn3c(C)nnc3SC2C(=O)Nc2cc(Cl)ccc2C)cc1 (configuration not stated)	0.63	-0.43
2	CCOC(=O)C(CCOc1cc(C)c(Cl)c(C)c1)C(=O)OCC	/	-1.5
3	COc1ccc(-c2noc(CSc3nnc(-c4ccncc4)n3C)n2)cc1OC	1.9	-1.8
4	O=S(=O)(c1ccc(F)cc1F)N1CCC(N2CCOCC2)CC1	0.94	/
5	O=C(CC(=O)Nc1ccc2nc3n(c(=O)c2c1)CCCCC3)Nc1ccc2c(c1)OCCO2	0.36	-0.82
6	Cc1nc(SCC(=O)c2ccc3c(c2)OCCO3)c2c3c(sc2n1)CCCC3	2.2	-23
7	Clc1ccc(N2CCC(c3ccncc3)CC2)nn1	0.64	-0.88
8	COC(=O)c1c(SCc2ccc(Cl)cc2)[nH]c2ccccc2c1=O	2.3	/
9	COc1ccc(-c2cc(=O)n3[nH]c(SC)nc3n2)cc1OC	-0.78	-0.72
10	O=C(O)CN1C(=O)C2CCCCN2c2ncccc21 (configuration not stated)	0.8	/
11	CN(C)c1ccc(NC(=O)CSc2nnnn2C)cc1	-1.1	-2.2
12	Cc1ccc(C)c2[nH]c(=O)c(CCNC(=O)c3ccco3)cc12	/	-1
13	COc1cc(C)c(C#N)c(OC)n1	/	-2
14	CCCCCNC(=O)CN1C(=O)c2ccccc2S1(=O)=O	-0.02	0.72
15	Cn1cccc1Cc1nnc(SCC(=O)N2CCCCC2)n1-c1ccccc1	2.2	-1.6

Following part.
nr	smiles	TAR Tat displ	CDC25B CDK2 inh
16	C=CCNc1nc(C2(C)CC3(CC(COCCCCC)OC3=O)C(=O)O2)cs1 (configuration not stated)	0.17	-0.55
17	Cc1cc(C)c2oc(C(=O)N(Cc3ccccc3F)C3CCS(=O)(=O)C3)c(C)c2c1 (configuration not stated)	-1.8	-0.9
18	Nc1nc2c(ncn2[C@@H]2O[C@H](CO)[C@@H](O)[C@@H]2O)c(=O)[nH]1	/	-0.57
19	C=CCOc1cccc(C2c3c(oc4ccccc4c3=O)C(=O)N2c2ccc(C)cn2)c1 (configuration not stated)	-0.38	0.35
20	COc1ccc2cc(CCNC(=O)C34CC5CC(CC(C5)C3)C4)c(=O)[nH]c2c1	/	-2.1
21	COc1ccccc1C1CC(=O)C2=C(C1)NC(C)=C(C(=O)OC1CCCC1)C2c1cccs1 (configuration not stated)	0.61	-0.32
22	CC(NC(=O)Cc1ccc([N+](=O)[O-])cc1)c1ccccc1 (configuration not stated)	/	-1.4
23	CS(=O)(=O)C(C#N)=C1SCCCCS1	/	-1.6
24	O=C(Cn1cnc2c(nnn2Cc2ccccc2F)c1=O)NCC1CCCO1 (configuration not stated)	/	-0.05
25	CCS(=O)(=O)N1N=C(c2cccc(NS(C)(=O)=O)c2)CC1c1ccccc1C (configuration not stated)	/	-4.8
26	Cn1c(=O)c2c(nc3n2CCN3CCO)n(C)c1=O	/	0.4
27	CCN(CC)c1ccc(-c2nc3ncccn3c2NCc2ccccc2)cc1	-6.1	/
28	Cc1ccccc1N1CSC2=C(C#N)C(c3cccs3)CC(=O)N2C1 (configuration not stated)	0.89	5.1*
29	Oc1c(C(Nc2ccccn2)c2ccccc2Br)ccc2cccnc12 (configuration not stated)	/	-0.5
30	CN(C)c1cc(NCCN2CCCC2)c2c3c(onc13)-c1ccccc1C2=O	-0.55	-2.1

Next part, starting with the last five of the part before.
nr	smiles	TAR Tat displ	CDC25B CDK2 inh
26	Cn1c(=O)c2c(nc3n2CCN3CCO)n(C)c1=O	/	0.4
27	CCN(CC)c1ccc(-c2nc3ncccn3c2NCc2ccccc2)cc1	-6.1	/
28	Cc1ccccc1N1CSC2=C(C#N)C(c3cccs3)CC(=O)N2C1 (configuration not stated)	0.89	5.1*
29	Oc1c(C(Nc2ccccn2)c2ccccc2Br)ccc2cccnc12 (configuration not stated)	/	-0.5
30	CN(C)c1cc(NCCN2CCCC2)c2c3c(onc13)-c1ccccc1C2=O	-0.55	-2.1
31	COc1ccc2c(c1OC)C(=O)N1c3cccc(Cl)c3C(=O)OC21 (configuration not stated)	/	-0.9
32	Cc1ccccc1Nc1nc(N2CCN(C)CC2)nc2c1cnn2C	1.3	/
33	O=C(C1CCCN(c2nc3cccnc3s2)C1)N1CCC(N2CCCCC2)CC1 (configuration not stated)	0.81	/
34	COc1ccc2c(Sc3ccccc3)c(C(=O)NCC3CCCO3)[nH]c2c1 (configuration not stated)	3.2	-2.5
35	CCN1C(=O)c2cc3ccccc3n2CC1(C)C(=O)NCC(=O)NCc1ccco1 (configuration not stated)	-1	/
36	CCC(C)NC(=O)C(C)n1nc(C)c2ccccc21 (configuration not stated)	1.1	-1.6
37	O=C(Nc1nnc(CCS(=O)(=O)c2ccc(Cl)cc2)s1)c1cccs1	/	0.67
38	COC(=O)CSC1=C(C#N)C(=O)NC(c2ccc(O)cc2)S1 (configuration not stated)	-1.3	-1.4
39	CCOC(=O)N/N=C(\Cc1ccccc1)c1ccccc1	/	-2.8
40	COc1cc(/C=C(\NC(C)=O)C(=O)O)cc(OC)c1OC	/	-0.17
41	Cc1ccc(Cl)cc1N1C(=O)C2C(c3ccccc3)OC3(C(=O)c4ccccc4C3=O)C2C1=O (configuration not stated)	/	-1.6
42	CCOC(=O)CSc1ncn(-c2nc(OC)nc(N(C)C)n2)n1	1.6	-1.3
43	Cn1nc(-c2ccc(Cl)cc2)cc1NC(=O)CSCC(=O)O	/	-0.99
44	Cc1cc(=O)n(C(C)C(=O)N2CCOCC2)c2c1c(C)nn2-c1ccccc1 (configuration not stated)	-1.2	/
45	Cc1ccc(CNc2nn3nnnc3c3ccccc23)cc1	0.65	/

3 compounds from above, arranged by number of heavy atoms, falling.
nr	smiles	TAR Tat displ	CDC25B CDK2 inh
44	Cc1cc(=O)n(C(C)C(=O)N2CCOCC2)c2c1c(C)nn2-c1ccccc1 (configuration not stated)	-1.2	/
32	Cc1ccccc1Nc1nc(N2CCN(C)CC2)nc2c1cnn2C	1.3	/
43	Cn1nc(-c2ccc(Cl)cc2)cc1NC(=O)CSCC(=O)O	/	-0.99

Carrying on:
nr	smiles	TAR Tat displ	CDC25B CDK2 inh
46	CN(C)c1ccc(NC(=O)C2CC=CCC2C(=O)O)cc1 (configuration not stated)	0	-27
47	CC(C)CCNc1ncnc2c1oc1nc3c(cc12)COC(C)(C)C3	-1.4	/
48	Cc1cc(-c2ccc(S(=O)(=O)Nc3ccc(F)c(Cl)c3)o2)n[nH]1	1.2	/
49	Cc1ccc(-c2csc3ncnc(NCc4ccco4)c23)cc1	/	-1.5
50	O=[n+]1cc(-c2ccc(Br)cc2)n([O-])c2c1CCCC2	/	-4.7
51	COc1cc([N+](=O)[O-])c(Nc2ccccn2)cc1N1CCOCC1	/	-1.9
52	O=C(Nc1c(C(=O)N2CCOCC2)oc2ccccc12)C1CCCCC1	2.1	/
53	CCOC(=O)c1cnc2cc(OC)ccc2c1Cl	0.37	-0.51
54	CC(=O)c1ccc(NC(=S)NC(NC(=O)c2ccco2)C(Cl)(Cl)Cl)cc1 (configuration not stated)	/	0.52
55	COc1cccc(-c2nc(SCc3cc(=O)c4cccc(Cl)c4[nH]3)n[nH]2)c1	-0.53	/
56	O=C(C1CC1)N1CCc2cc(Br)cc(S(=O)(=O)NCCc3ccccc3)c21	/	-0.39
57	O=S(=O)(NCc1cccs1)c1cccc2cccnc12	/	0.57
58	COc1ccc(OC)c(-c2noc(Nc3cc(Cl)c(OC)cc3OC)n2)c1	1	/
59	CCOC(=O)c1oc2ccc(S(=O)(=O)N3CCN(Cc4noc5ccccc45)CC3)cc2c1C	1.9	/
60	CS(C)(=O)=NS(=O)(=O)c1cc(S(=O)(=O)N=S(C)(C)=O)c(Cl)s1	/	-1.2

Carrying on:
nr	smiles	TAR Tat displ	CDC25B CDK2 inh
61	Oc1ccccc1C1=NC(c2ccc(F)cc2)NC(c2ccccn2)C1 (configuration not stated)	-1	-2.5
62	O=S(=O)(NNc1ncccc1-n1cccc1)c1ccc(Cl)c(Cl)c1	/	-0.12
63	NC(=O)CNC(=O)c1cccs1	/	-1.2
64	CN1CCN(C(=O)c2ccc3c(=O)n4c(nc3c2)CCCCC4)CC1	-0.34	0.26
65	Cc1ccc(-n2c(=O)[nH]c3sc(C)c(C)c3c2=O)cc1C	/	-0.96
66	N#Cc1c(SCC(=O)N2CCOCC2)nsc1SCC(=O)N1CCOCC1	2.1	-0.97
67	N#Cc1c(-c2ccccc2)cc(-c2ccc(Cl)cc2)nc1N	0.15	-2.7
68	Clc1ccc2nc(-c3ccsc3)c(NC3CCCCC3)n2c1	/	-2.2
69	COc1ccccc1-c1n[nH]c(=O)c(Cc2ccc(Br)cc2)n1	0.75	/
70	COc1ccc2c(c1)c1nc(SCC(C)C)n(CCO)c(=O)c1n2C	/	-2.3
71	COC(=O)c1ccc(C(=O)Nc2cc(Cl)ccc2Cl)cc1N=NC1=C(O)CC(C)(C)CC1=O	/	-3
72	Cc1cc(C)c(S(=O)(=O)N2CCCN(S(=O)(=O)c3cc(C)c(C)cc3C)CC2)cc1C	0.46	-0.3
73	COc1ccc(N2CCCS2(=O)=O)cc1NS(=O)(=O)c1ccc(C)cc1	1.1	/
74	COc1ccc(NC(=O)c2nn(-c3ccccc3)ccc2=O)cc1Cl	0.47	-0.82
75	CC(=O)N1N=C(c2ccc(Cl)cc2)OC1c1ccc2c(c1)OCO2 (configuration not stated)	-0.61	/

Continuation:
nr	smiles	TAR Tat displ	CDC25B CDK2 inh
76	CC(C)(C)NC(=O)CSc1nc2ncccc2o1	0.18	/
77	C=CCNc1nc(Nc2cccc(OC)c2)c2cnn(C)c2n1	-0.44	/
78	Cc1cc(C)n(-c2nc3c(c(=O)[nH]c(=O)n3C)n2C(C)C)n1	1.7	-0.91
79	COC(=O)Cn1c(SCCOc2ccccc2Cl)nc2ccccc21	0.68	0.75
80	CCc1cc2c3c([nH]c2cc1S(=O)(=O)Nc1ccc(F)c(Cl)c1)CCCC3=O	5.5	/
81	C=CCC(C)(CC=C)NS(=O)(=O)c1ccc(C)cc1	-0.44	-1.3
82	Cn1cccc1C(=O)N/N=C/c1ccccn1	/	-2
83	CCN1CCCC1CNc1nc(-c2ccc(OC)cc2)nc2ccccc12 (configuration not stated)	-0.31	/
84	COC(=O)C1=C(O)c2ccccc2S(=O)(=O)N1C(C)C	2.2	-0.76
85	OCCNc1ncnc2c1cnn2-c1ccccc1	0.6	/
86	CCSCCOC(=O)C1=C(C)NC(=O)NC1c1ccccc1Br (configuration not stated)	/	-1.2
87	CNC(=S)NN=C1CCCC1	/	0.64
88	CC1=C(C(=O)OCC2CCCO2)C(c2cc3c(cc2Br)OCO3)NC(=O)N1 (configuration not stated)	/	-1.3
89	CCOC(=O)c1csc(-n2nc(CC(C)C)cc2C(F)(F)F)n1	0.87	/
90	O=C(Cn1ccc2cc(S(=O)(=O)N3CCCCC3)ccc21)N1CCCCC1	0.63	/

(next part)
nr	smiles	TAR Tat displ	CDC25B CDK2 inh
91	CN(C)CCNC(=O)c1cc2n(n1)CC(C)(C(=O)NC1CCCCC1)N(C)C2=O (configuration not stated)	0.45	/
92	O=S(=O)(Nc1cccc(N2CCCS2(=O)=O)c1)c1ccccc1Cl	-0.99	/
93	O=C1c2ccccc2C(Nc2ccc(F)c(Cl)c2)N1c1cccnc1 (configuration not stated)	0.8	1.4
94	CCOC(=O)N/N=C/c1sc2ccccc2c1C	/	0.87
95	O=C1Nc2cc(Cl)ccc2SC2CCCCC2O1 (configuration not stated)	/	20*
96	CCc1ccc(NS(=O)(=O)c2ccc(/C=C/c3onc(C)c3[N+](=O)[O-])cc2)cc1	2.7	/
97	O=C(O)c1ccc(-c2ccc(O)c(F)c2)cc1	0.15	-2.6
98	CCOc1ccccc1-c1noc(-c2ccco2)n1	-1.1	-1.5
99	Cc1ccc(S(=O)(=O)NCc2cccnc2)cc1C	-1.8	-1.3
100	Cc1ccc(S(=O)(=O)N(C)C)cc1NC(=O)c1ccccc1C(=O)O	/	-0.86
101	O=S(=O)(NCc1nc(-c2ccccc2Cl)no1)c1ccc(F)cc1	0.34	-1.6
102	CCCCc1nc(NCCN2CCOCC2)c(C#N)c2c1COC(C)(C)C2	-0.9	-0.36
103	CS(=O)(=NC(=O)c1cc(C(F)(F)F)cc(C(F)(F)F)c1)c1ccc(Cl)cc1 (configuration not stated)	/	-0.5
104	CCCC(=O)N1c2ccc(C)cc2C(=C2SC(C(=O)OC)=C(C(=O)OC)S2)C(=S)C1(C)C	0.9	-0.96
105	CC(C)c1ccc(NS(=O)(=O)c2cn(C)cn2)cc1	-0.52	/

Further records:
nr	smiles	TAR Tat displ	CDC25B CDK2 inh
106	COc1ccc2nc(C)cc(Nc3ccccc3OC)c2c1	0.53	-0.54
107	CCOC(=O)c1ccccc1NC(=O)CN(c1ccc(C)c(Cl)c1)S(C)(=O)=O	/	0.39
108	Cc1cc(SCC(=O)c2ccc(O)cc2O)ncn1	0.94	-0.85
109	CCc1nn(CCCC(=O)NCCN2CCCCC2C)c(=O)c2cc3oc(C)cc3n12 (configuration not stated)	-1.1	-2.2
110	COc1ccc2nc3oc(C(=O)NC4CCCCC4)cc3cc2c1	0.98	/
111	N#CC1=C2SCN(C3CCCCC3)CN2C(=O)CC1c1ccccc1Cl (configuration not stated)	0.56	2.1
112	Cc1ccccc1-c1nc2c(C#N)c[nH]n2c1NC1CCCCC1	0.79	-2
113	O=C(NCc1nc(-c2ccc(Cl)cc2)no1)c1ccc2c(c1)OCO2	1.7	-1.5
114	Cc1cccc(Cn2c(C)c(CNCC3CCCO3)c(C(=O)O)c2C)c1 (configuration not stated)	0.41	/
115	COc1ccc(-c2cc(-c3nc(-c4ccccn4)no3)[nH]n2)cc1	0.79	/
116	O=C(NC1=NCCS1)c1cccc(N2C(=O)CCS2(=O)=O)c1	0.49	-2.3
117	CC1CC(C)CN(C(=O)CN2C(=O)CSc3ncccc32)C1 (configuration not stated)	-1.1	-1.2
118	CCc1ccc(C(=O)/C=C/c2ccc([N+](=O)[O-])o2)cc1	/	-0.9

Screening results: PubChem, Center for Chemical Genomics, University of Michigan

An unsorted share of the library (roughly 0.87% active in at least one column).
